Marburg entry – blocks Marburg virus binding or cell entry | Marburg virus pseudotype entry/binding inhibition, cell-based; control for the full effect not named in the record; many of its hits are not listed in these tables | Potency, µM (doses to about 49.2 µM), inactives show top-dose activity change, negative = inhibition, most hits filed as inhibitors | hit rate 6.5% among 18,000; active means well fitted inhibition curve with a large enough effect; inconclusive means small, poorly fitted or top-dose-only effect; inactive means no such curve, though single readings can be large or run the other way; tested in HEK293 cells; further: luciferase read-out
Lassa entry – Lassa virus entry inhibition; Lassa virus pseudotyped entry inhibition, cell-based qHTS; control for the full effect not named in the record; many of its hits are not listed in these tables; Potency, µM (top dose mostly 49.2 µM), for the others: at the top dose activity change, negative = inhibition, actives largely listed as inhibitors; AID 720533; hit rate 4.1% among 18,000; active = well fitted inhibition curve with a large enough effect; inconclusive = small, poorly fitted or top-dose-only effect; inactive = no such curve, though single readings can be large or run the other way; tested in HEK293 cells; further: luciferase read-out
* marks the source's active call; other numbers are inactive results; ? = inconclusive; . = no result given; & = joins results of further samples; ! = not active in a repeat; [ ] = dose if it differs, or a comment. On the % scale 0 is the no-effect control and ±100 the full control effect; potency means the concentration at half of the fitted maximal effect. These rows are one share of the data; count on the stated rates, not on these rows.

SMILES	Marburg entry	Lassa entry
CCCCOc1ccc(OCCCN2CCOCC2)cc1	-27%	12%
Cc1nc(C(C)NC2CCN(c3cccc(NC(=O)c4ccncc4)c3)CC2)cs1 (configuration not stated)	5%	-3%
CN(C)Cc1ccccc1-c1ccc2ncnc(N(C)Cc3ccco3)c2c1	?	-3%
COc1ccc(-c2nc(-c3ccccc3)oc2Nc2c(C)cccc2C)cc1	1%	3%
CCCNC(=O)OC[C@H]1O[C@H](CCON=C(C)CCN2CCCCc3nc(C)c(C)cc32)C=C[C@H]1Oc1ccc(OC)cc1	-26%[8.59 µM]	-22%[8.59 µM]
O=c1[nH]cnc2c1nc(Cl)n2C1OC(CO)C(O)C1O (configuration not stated)	3%	-5%
CC1=C(/C=C/C(C)=C/C=C/C(C)=C/C=C/C=C(C)/C=C/C=C(C)/C=C/C2=C(C)C(=O)CCC2(C)C)C(C)(C)CCC1=O	-2%	-4%
COCOCCn1cc(CN2CCS(=O)(=O)N(Cc3ccc(-c4ccccc4)cc3)C(C)C2=O)nn1 (configuration not stated)	10%	-7%
CC(=O)OC1CC(OC(C)=O)[C@]2(C)C(CC(OC(C)=O)[C@]3(C)C2CC[C@@]2(C)C(c4ccoc4)C[C@H]4O[C@]432)C1(C)C (some centres not stated)	-22%	-2%
Cc1cccc(CNC(=O)c2cnn(-c3ncc(C)c(-c4ccc(F)cc4)n3)c2C)n1	-12%	-15%
CCC[C@H]1CN(c2ccc(Br)cc2)C(=O)[C@H]1CC(=O)Nc1ccccc1	?	-23%
O=S(=O)(c1ccc(Br)cc1F)N1CC[C@H](O)C1	14%	11%
CC(C(=O)OC1CC2CCC(C1)N2C)c1ccc(Br)cc1 (configuration not stated)	28µM*	-11%
O=C(O)C(S)[C@@H](S)C(=O)O (some centres not stated)	4%	4%
COc1ccc(C(=O)CCC(=O)O)c2ccccc12	7%	4%
COc1cccc(-c2nccc(-n3ccnc3)n2)c1	39%[activator]	69%[activator]
C=CCN1Cc2ccccc2Oc2ccc(Cl)cc2S1(=O)=O	9%	42%[activator]
CCN1C(C)=CC(=O)[C@@H](O)[C@H]1c1ccccc1Br	12%	-18%
ClCC1C(CCl)C2(Cl)C(Cl)=C(Cl)C1(Cl)C2(Cl)Cl (configuration not stated)	-22%	-26%
CN1CCCC(CN(C)C(=O)c2cnn(-c3nccc(-c4ccccc4C(F)(F)F)n3)c2C2CC2)C1 (configuration not stated)	?	-4%
C[N+]1(C)CCC[C@H]1C(=O)[O-]	-6%	5%
Cc1cnc(C)c(-c2ccc(F)c3c2OC(CNC(=O)Cc2c(F)cccc2F)C3)n1 (configuration not stated)	-2%	-10%
CC1=CC[C@@H](C)O[C@@]2(C1)C(=O)Nc1cccc(Br)c12	-15%&5%[8.59 µM]	60%[activator][8.59 µM]
N#CCCCS(=O)(=O)c1nnnn1C1CCCCC1	-14%	3%
COC(=O)c1cc(CNC(=O)c2ccncc2)cc(NC(=O)c2ccccc2Cl)c1	?	-19%
SMILES	Marburg entry	Lassa entry
Cc1nc(CC(=O)N2CCC(n3c(C4CCC4)nc4cccnc43)CC2)cs1	?	15%
Cc1ccc([C@H]2C[C@@H](O)[C@H](n3cc(-c4ccc(F)cc4)nn3)CN2Cc2cccs2)cc1	?	.
COC(=O)C1(C(=O)OC)Cc2conc2[C@@H]1c1ccccc1	?	7%&29%[8.59 µM]
COc1cc(OC)c2cc(-c3ccncc3)cnc2c1	2%	7%
COc1cc2oc(=O)c3c4c(cc5ccc(c1CCN(C)C)c2c53)OCO4	?	-6%
CCOc1cc(-c2nccc3cc(OC)c(OC)cc23)cc(OCC)c1OCC	18%	-19%
CCS(=O)(=O)C(C)(C)S(=O)(=O)CC	25%	-16%
CCN(Cc1ccccc1)c1cc2c(c3c1ccn3C)C1CCC2C1 (configuration not stated)	-29%	14%
Ic1ccc(N2CCN(Cc3c[nH]c4ncccc34)CC2)cc1	-20%	-22%
CC(C)c1c(C(=O)N(C)C2CCN(C)CC2)cnn1-c1nccc(-c2ccco2)n1	-9%	-8%
CCOC(=O)c1ccc(NC(=O)CN2CCCCC2)cc1	19%	-12%
Fc1ccccc1-c1nc(-c2ccccc2)oc1NCc1ccccc1	1%[8.59 µM]	-32%[8.59 µM]
CC(N)(C(=O)O)c1ccc(S(=O)(=O)O)cc1 (configuration not stated)	13%	20%
COc1ccccc1C(=O)N1CCCC(c2nc(SCCN3CCOCC3)ncc2C)C1 (configuration not stated)	-5%	-3%
C[C@@H]1C[C@@H]2[C@H]([C@H]3C=C(COC(=O)c4ccccc4)[C@@H](O)[C@]4(O)[C@@H](O)C(OC(=O)c5ccccc5)=C[C@@]14C3=O)C2(C)C	?	-24%
COc1ccc(F)c(CN2CCOc3ccc(CN4CCC(O)(c5cccnc5)CC4)cc3C2)c1	?	-9%
COC(=O)CC=C[C@@H](C)[C@@H](C=NOC[C@@H](O)[C@H]1O[C@@H]2OC(C)(C)O[C@H]2[C@@H]1O)OC	22%[8.59 µM]	47%[activator][8.59 µM]
COc1ccccc1N1CCN(C[C@@H](O)COc2cccc3ccccc23)CC1	?	-29%
Nc1nc2ccc(OC(F)(F)F)cc2s1	20%	23%
COc1ccccc1C(=O)N[C@@H]1c2ccccc2C2(CCN(C(=O)c3ccnn3C)CC2)[C@H]1OC	0%	-24%
O[C@@H]1COC2[C@@H](O)CO[C@@H]21 (some centres not stated)	9%	?
c1cnn2ncc(-c3ccnc(NCCCN4CCOCC4)n3)c2c1	?	.
O=C(O)c1cc(N(Cc2ccccc2O)Cc2cc(O)ccc2O)ccc1O	20µM*!	?
O=C(NCc1nnc2n1CCN(C(=O)/C=C/c1ccccc1)CC2)c1cccc(F)c1	-2%	-9%
COC(=O)C1CCN(Cc2ccc3c(c2)CN(C(=O)c2cc(-c4ccc(C)o4)[nH]n2)CCO3)CC1	?	?

As entered above:
Result for CCOC(=O)c1ccc(NC(=O)CN2CCCCC2)cc1 in Lassa entry: -12%
Result for O[C@@H]1COC2[C@@H](O)CO[C@@H]21 (some centres not stated) in Marburg entry: 9%
Result for CCS(=O)(=O)C(C)(C)S(=O)(=O)CC in Lassa entry: -16%
Result for COc1ccc(C(=O)CCC(=O)O)c2ccccc12 in Marburg entry: 7%
Result for CN1CCCC(CN(C)C(=O)c2cnn(-c3nccc(-c4ccccc4C(F)(F)F)n3)c2C2CC2)C1 (configuration not stated) in Lassa entry: -4%
Result for O=S(=O)(c1ccc(Br)cc1F)N1CC[C@H](O)C1 in Marburg entry: 14%

A portion from the list above, for reference:
SMILES	Marburg entry	Lassa entry
CCCCOc1ccc(OCCCN2CCOCC2)cc1	-27%	12%
Cc1nc(C(C)NC2CCN(c3cccc(NC(=O)c4ccncc4)c3)CC2)cs1 (configuration not stated)	5%	-3%
CN(C)Cc1ccccc1-c1ccc2ncnc(N(C)Cc3ccco3)c2c1	?	-3%
COc1ccc(-c2nc(-c3ccccc3)oc2Nc2c(C)cccc2C)cc1	1%	3%
CCCNC(=O)OC[C@H]1O[C@H](CCON=C(C)CCN2CCCCc3nc(C)c(C)cc32)C=C[C@H]1Oc1ccc(OC)cc1	-26%[8.59 µM]	-22%[8.59 µM]

Two entries drawn at random from the list so far, as already listed:
SMILES	Marburg entry	Lassa entry
O[C@@H]1COC2[C@@H](O)CO[C@@H]21 (some centres not stated)	9%	?
COCOCCn1cc(CN2CCS(=O)(=O)N(Cc3ccc(-c4ccccc4)cc3)C(C)C2=O)nn1 (configuration not stated)	10%	-7%

Remaining list, next part.
SMILES	Marburg entry	Lassa entry
O=Cc1cccc(OCc2cn(CC(=O)c3ccc(O)cc3)nn2)c1	7%	-5%
c1cncc(OC2CCN(Cc3ccc4c(c3)CN(Cc3ccc5c(c3)OCO5)CCO4)CC2)c1	?	-5%
O=C(OCc1cn([C@H]2C[C@H](c3ccc(Cl)cc3)N(C(=O)C3CCCCC3)C[C@H]2O)nn1)c1ccccc1	?	-2%
Cc1ccc([C@H]2C[C@H](n3cc(C4CC4)nn3)[C@@H](O)CN2C(=O)C2CCCCC2)cc1	-1%	?
CCCCCC(CC(=O)O)C(=O)O (configuration not stated)	18%	3%
C[C@@H]1C(c2ccccc2)=NN(c2ccccc2)[C@H]1C(=O)N1CCOC1=O	-18%	-24%
CCOC(=O)CN1C(=O)N[C@@H](c2cccc(C(F)(F)F)c2)[C@H](C(C)=O)[C@H]1C	43%[activator][8.59 µM]	-4%[8.59 µM]
COc1cc(=O)n2c(c1C(=O)N(C)Cc1ccsc1)CCN(Cc1c(C)nc3sccn13)CC2	0%	-16%
CCC1(C2CCN(C(=O)c3cc(F)ccc3F)CC2)NC(=O)N(CCc2scnc2C)C1=O (configuration not stated)	12%	-13%
CCCCCOc1ccc(C2SC(=O)NC2=O)cc1OCC (configuration not stated)	12%	11%
Cc1cccc(C(C)c2cnc[nH]2)c1C (configuration not stated)	-3%	13%
CCC1CN(CCNC(=O)c2cc3ccccc3oc2=O)Cc2cc(OC)ccc2O1 (configuration not stated)	?	-1%
C[C@H](CCC(=O)OCc1cn(CC(=O)c2ccc(O)cc2)nn1)[C@H]1CC[C@H]2[C@@H]3CC[C@@H]4C[C@H](O)CC[C@]4(C)[C@@H]3C[C@H](O)[C@]12C	17%	15%
CCCCC[C@H](O)/C=C/C=C\C/C=C\C/C=C\CCCC(=O)O	8%&14%	3%&0%
CN[C@@H]1[C@H](O[C@H]2[C@@H](O[C@@H]3[C@@H](O)[C@@H](O)[C@@H](N=C(N)N)[C@@H](O)[C@@H]3N=C(N)N)O[C@@H](C)[C@]2(O)CO)O[C@H](CO)[C@@H](O)[C@@H]1O	-8%[17.8 µM]	5%[17.8 µM]
CC(=O)C1=C(C)N(CC2CC2)C(=O)N[C@H]1c1ccccc1	23%	-2%
CCOC(=O)C1C(C(=O)OC)=C(c2ccc(OC)cc2)c2ccc(OC)cc2N1S(=O)(=O)C(F)(F)F (configuration not stated)	24%	-10%
CC(C)[C@H](NC(=O)OCc1ccccc1)C(=O)N[C@H](C=O)Cc1ccccc1	?	-5%
Cc1ccc(CN2CC(N3CCN(C)CC3)CS2(=O)=O)cc1 (configuration not stated)	7%	7%
O=C(NCc1nnc2n1CCN(Cc1ccc(C(F)(F)F)cc1)CC2)c1ccccn1	10%	-3%
COC(=O)c1ccc(CN2CCOc3ccc(C(O)c4cccnc4)cc3C2)cc1 (configuration not stated)	-20%	3%
Nc1ncnc2c1ncn2C1OC(CO)C(O)C1O (configuration not stated)	5%&21%	0%&-1%
CC(C)C(C(=O)O)N1C(=O)/C(=C/c2ccc(Br)cc2)SC1=S (configuration not stated)	19%	-3%
